Ecoli growth: E. coli growth inhibition; Escherichia coli growth, OD600, 23 h; active compounds read low; OD600 absorbance (test concentration not listed); actives 0.21% (n = 330,000); AID 1053175;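 active means OD600 absorbance below the run mean of sample wells minus 3.6 SD, in any replicate, cut at about 0.56 in these data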;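 further: stock transfer was 300 nL into about 60 µL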
UCH37 DUB inh: blocks the human deubiquitinase UCH37. AID 588478. inhibition, % (test concentration not listed). purified proteasome/UCH37, Ub-AMC cleavage fluorescence. actives 0.33% (n = 330,000);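 active means mean of two replicates above 20%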;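 further: 0% = compound-free wells with enzyme and 100% = wells lacking proteasome; stock transfer was 100 nL into about 20 µL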
Target sequence (Q9Y5K5 whole entry, looked up): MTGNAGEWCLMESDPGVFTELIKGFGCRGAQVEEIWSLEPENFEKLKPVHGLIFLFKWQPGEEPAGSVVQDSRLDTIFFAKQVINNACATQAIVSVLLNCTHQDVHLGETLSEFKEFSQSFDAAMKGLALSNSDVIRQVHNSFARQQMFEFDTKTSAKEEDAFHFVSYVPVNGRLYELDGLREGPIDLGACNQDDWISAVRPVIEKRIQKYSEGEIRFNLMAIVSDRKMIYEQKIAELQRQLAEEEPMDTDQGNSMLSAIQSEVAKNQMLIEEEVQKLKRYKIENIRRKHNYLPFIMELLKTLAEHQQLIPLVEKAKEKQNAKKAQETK
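System: Proteasome-associated human UCH37 deubiquitinase; Input: 0.15 nM proteasome in added enzyme buffer; Also added: Ub-AMC substrate from 1 µM stock; Incubation: 30 min compound-proteasome preincubation then 25 min substrate reaction, room temperature; Detection: fluorescence, ex 355 nm, em 460 nm; Read-out: % inhibition of Ub-AMC cleavage fluorescence; Benchmarks: no-proteasome and no-compound wells.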
Ecoli rRNA inh: inhibitors of bacterial rRNA selective over humanized ribosomes. GFP signal change (wild-type ribosome), % (test concentration not listed). actives 1.6% (n = 350,000). E. coli WT GFP vs humanized-ribosome RFP mutants, fluorescence, 24 h; active compounds read low; DMSO median 0, no signal -100;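 active means significant combined selectivity score with lowered wild-type GFP, culture density cut under 30%, mutant RFP and density less affected; inactive means any of these conditions unmet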; further: one replicate is shown; some compounds called inactive have numbers as strong as hits
AF4-AF9 inh: MLL-AF4/AF9 protein interaction inhibition; actives 0.47% (n = 350,000); P42568; inhibition, % at 10 µM; AlphaScreen, biotin-AF4 peptide binding to FLAG-AF9; AID 651704;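 active means every replicate reaching a set inhibition limit, whatever the replicate mean, cut at about 25% in these data; inconclusive means mean inhibition reaches that limit but some replicates miss it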;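 further: 0% = plate neutral control median and 100% = total signal loss; the record names both 10 and 1 µM as test concentration; the first replicate is given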
Target sequence (P42568 whole entry, looked up): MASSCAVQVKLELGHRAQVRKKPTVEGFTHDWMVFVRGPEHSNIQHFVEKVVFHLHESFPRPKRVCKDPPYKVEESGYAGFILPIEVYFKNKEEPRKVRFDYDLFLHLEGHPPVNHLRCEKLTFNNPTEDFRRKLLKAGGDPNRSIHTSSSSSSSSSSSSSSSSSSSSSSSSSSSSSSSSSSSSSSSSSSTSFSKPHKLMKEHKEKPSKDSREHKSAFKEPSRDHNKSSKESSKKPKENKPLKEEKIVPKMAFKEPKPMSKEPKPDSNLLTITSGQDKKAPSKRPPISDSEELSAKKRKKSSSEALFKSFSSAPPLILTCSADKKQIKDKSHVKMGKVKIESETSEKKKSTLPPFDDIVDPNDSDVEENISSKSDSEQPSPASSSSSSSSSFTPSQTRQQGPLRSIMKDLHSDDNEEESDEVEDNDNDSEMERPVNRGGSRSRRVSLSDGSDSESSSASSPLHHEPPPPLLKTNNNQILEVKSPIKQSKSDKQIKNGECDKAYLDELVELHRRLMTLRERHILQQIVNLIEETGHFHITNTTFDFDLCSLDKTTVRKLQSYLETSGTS
T cruzi repl: T. cruzi replication inhibition. T. cruzi beta-gal in NIH3T3, luminescence, 90 h. inhibition, % (test concentration not listed). actives 1.4% (n = 300,000). AID 1885;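 active means mean inhibition across valid replicates above about 55%, limit read from the data; inconclusive means mean below that limit but half or more replicates reach it; inactive means mean below it, under half of replicates reach it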;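 further: signal also drops with host cell toxicity which is not excluded here; 0% = plate median of DMSO wells and 100% = zero luminescence signal; higher percent means less beta-gal luminescence so fewer parasites; stock transfer was 50 nL into about 50 µL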
FGF22 binding: binders of recombinant human FGF22 by thermal shift | SYPRO orange fluorescence; percent of sucrose octasulfate shift, DMSO zero | calls only at 9.99 µM | AID 651658 | Q9HCT0 | actives 1.5% (n = 340,000);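 active means melting point raised past a set limit in the mean and every replicate; inconclusive means no clear call; three in four hits are not shown here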
Target sequence (Q9HCT0 whole entry, looked up): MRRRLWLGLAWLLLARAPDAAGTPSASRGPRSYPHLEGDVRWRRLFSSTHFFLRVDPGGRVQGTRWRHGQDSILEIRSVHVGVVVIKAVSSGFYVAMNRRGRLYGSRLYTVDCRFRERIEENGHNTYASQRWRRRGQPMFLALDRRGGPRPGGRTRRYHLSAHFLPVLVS
Beta cell apopt: blocks beta cell apoptosis; INS-1E cytokine-induced death, ATP luminescence, 48 h; percent of positive-control rescue, neutral wells zero; protection from apoptosis, % (test concentration not listed); actives 0.8% (n = 300,000);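 active means all replicates at 75% or more, or half of them and the mean; inconclusive means half reach 75% but not the mean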;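 further: 0% = cytokine-treated negative control wells and 100% = positive control rescue; higher means more ATP so stronger rescue from cytokine killing; wells of about 40 µL received 100 nL stock; the first replicate is given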
Bfl-1 A1 inh: inhibitors of the anti-apoptotic protein A1, read as caspase activation. MEF A1-2A-BIM cells, Caspase-Glo 3/7 luminescence, 3 h; percent of clofoctol response, vehicle zero. caspase activation, % (test concentration not listed). actives 0.066% (n = 330,000);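 active means over half of replicate activation scores above 10%, or exactly half above 10 with the replicate mean above 10; inconclusive means replicate mean below 10 yet half the replicates above 10; inactive means over half of replicates below 10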;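 further: wells of about 30 µL received 50 nL stock; many hits fall short of the cut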
Ecoli rRNA inh OD600: further read-out of Ecoli rRNA inh, marked with its call; OD600 change, %; measured here: OD600 growth;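 optical density of the mix in the first replicate; 0 = DMSO median and -100 = no signal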
Ecoli rRNA inh RFP: further read-out of Ecoli rRNA inh, marked with its call; RFP signal change, %; measured here: RFP humanized mutant strains;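 first replicate; 0 = DMSO median and -100 = no signal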
* = called active by the depositor. An excerpt; the hit share may differ from the screen's.

How did CCOC(=O)c1cccc(NC(=O)CN2CCN(c3ccc(OC)cc3)CC2)c1 do in these assays?
Ecoli growth: 0.672; UCH37 DUB inh: 4.0; T cruzi repl: -8.0; Bfl-1 A1 inh: 0.1

What do the screens show for `Cc1ccc(NC(=O)CN(C)C(=O)CSc2nc3ccccc3c(=O)n2Cc2ccco2)cc1`?
Ecoli growth: 0.775; UCH37 DUB inh: 3.3; T cruzi repl: 18.8; Beta cell apopt: -1.9; Bfl-1 A1 inh: -0.2

Results for C/C(=N\NC(=O)C(N)=O)c1ccc(OC(F)F)cc1 ?
Ecoli rRNA inh: 9.6; AF4-AF9 inh: -0.5; T cruzi repl: -6.5; FGF22 binding: inactive; Beta cell apopt: 3.1; Bfl-1 A1 inh: -0.3; Ecoli rRNA inh OD600: 8.3; Ecoli rRNA inh RFP: -0.6

What do the screens show for `Cc1cc(N2C(=O)C(=O)/C(=C(/O)c3ccc(F)cc3)C2c2ccc(F)cc2)no1` (stereo not given)?
Ecoli growth: 0.696; UCH37 DUB inh: 9.6; T cruzi repl: 3.3; Beta cell apopt: 0.3; Bfl-1 A1 inh: 0.2

Results for Cc1ccc2c(c1)C(C)CC(C)(C)N2C(=O)NC1CCCCC1 (stereo not given) ?
Ecoli growth: 0.731; UCH37 DUB inh: 3.5; T cruzi repl: 3.7; Beta cell apopt: -16.8; Bfl-1 A1 inh: 1.7

Results for Cc1ccc(S(=O)(=O)NC2=NCN(C3CCCCC3)CN2)cc1 ?
Ecoli growth: 0.692; UCH37 DUB inh: 0.2; T cruzi repl: -5.9; Bfl-1 A1 inh: 0.3

Results for O=C(CSc1nnc(NC(=O)c2ccccc2F)s1)NCc1ccco1 ?
Ecoli growth: 0.681; UCH37 DUB inh: 3.2; Ecoli rRNA inh: 0.8; AF4-AF9 inh: -0.3; T cruzi repl: -10.9; FGF22 binding: inactive; Beta cell apopt: -1.2; Bfl-1 A1 inh: -0.7; Ecoli rRNA inh OD600: 0.6; Ecoli rRNA inh RFP: -2.2

How did CCOc1ccc(C2OC(=O)Cc3cc(OC)c(OC)cc32)cc1 (stereo not given) do in these assays?
Ecoli growth: 0.711; UCH37 DUB inh: 1.6; Ecoli rRNA inh: 2.7; AF4-AF9 inh: 4.9; T cruzi repl: -18.8; FGF22 binding: active; Beta cell apopt: -6.5; Bfl-1 A1 inh: 0.7; Ecoli rRNA inh OD600: -10.3; Ecoli rRNA inh RFP: 1.1

What do the screens show for `COc1ccc(CCN2C(=O)C(O)=C(C(C)=O)C2c2ccccc2OC)cc1OC` (stereo not given)?
Ecoli growth: 0.667; UCH37 DUB inh: 4.9; Ecoli rRNA inh: 3.8; AF4-AF9 inh: 0.5; T cruzi repl: -15.5; FGF22 binding: inactive; Bfl-1 A1 inh: 0.7; Ecoli rRNA inh OD600: 9.4; Ecoli rRNA inh RFP: 1.1

How did COC(=O)c1cc(S(=O)(=O)NCc2cccs2)c[nH]1 do in these assays?
Ecoli growth: 0.686; UCH37 DUB inh: 5.2; Ecoli rRNA inh: 20.5; AF4-AF9 inh: 0.9; T cruzi repl: -24.0; FGF22 binding: inactive; Beta cell apopt: -4.7; Bfl-1 A1 inh: 0.2; Ecoli rRNA inh OD600: 20.6; Ecoli rRNA inh RFP: 1.5

What do the screens show for `COC(=O)c1ccc(OC)c(Cn2c(=O)n(C)c(=O)c3sccc32)c1`?
Ecoli growth: 0.658; UCH37 DUB inh: 1.0; T cruzi repl: 0.6; Beta cell apopt: 2.0; Bfl-1 A1 inh: -0.8

What do the screens show for `COCCN(C(=O)CSc1nnc(-c2ccc(C)cc2)n1N)c1c(N)n(Cc2ccccc2)c(=O)[nH]c1=O`?
Ecoli growth: 0.678; UCH37 DUB inh: -0.2; Ecoli rRNA inh: 7.7; AF4-AF9 inh: 0.0; T cruzi repl: -14.2; FGF22 binding: inactive; Beta cell apopt: 2.5; Bfl-1 A1 inh: 0.2; Ecoli rRNA inh OD600: 16.3; Ecoli rRNA inh RFP: -1.1

What do the screens show for `Cc1ccc(NC(=O)NNC(=O)c2cc3ccccc3cc2O)c(C)c1`?
Ecoli growth: 0.703; UCH37 DUB inh: 6.2; Ecoli rRNA inh: 5.7; AF4-AF9 inh: -3.6; T cruzi repl: -7.7; FGF22 binding: inactive; Beta cell apopt: 2.3; Bfl-1 A1 inh: 0.2; Ecoli rRNA inh OD600: 3.3; Ecoli rRNA inh RFP: -1.7

How did CCOC(=O)CC(=O)Nc1ccc(Br)cc1C(=O)O do in these assays?
Ecoli growth: 0.75; UCH37 DUB inh: 1.3; T cruzi repl: -9.5; Beta cell apopt: -4.8; Bfl-1 A1 inh: 0.7

How did CN(NS(=O)(=O)c1ccc(Br)cc1)c1nc(C(F)(F)F)nc2ccccc12 do in these assays?
Ecoli growth: 0.657; UCH37 DUB inh: 5.5; Ecoli rRNA inh: -54.1; AF4-AF9 inh: 0.1; T cruzi repl: -23.1; FGF22 binding: inactive; Beta cell apopt: 21.6; Bfl-1 A1 inh: -0.1; Ecoli rRNA inh OD600: -79.5; Ecoli rRNA inh RFP: -19.9

Continued (2 carried over from the part before).
How did CCOC(=O)CC(=O)Nc1ccc(Br)cc1C(=O)O do in these assays?
Ecoli growth: 0.75; UCH37 DUB inh: 1.3; T cruzi repl: -9.5; Beta cell apopt: -4.8; Bfl-1 A1 inh: 0.7

How did CN(NS(=O)(=O)c1ccc(Br)cc1)c1nc(C(F)(F)F)nc2ccccc12 do in these assays?
Ecoli growth: 0.657; UCH37 DUB inh: 5.5; Ecoli rRNA inh: -54.1; AF4-AF9 inh: 0.1; T cruzi repl: -23.1; FGF22 binding: inactive; Beta cell apopt: 21.6; Bfl-1 A1 inh: -0.1; Ecoli rRNA inh OD600: -79.5; Ecoli rRNA inh RFP: -19.9

How did COc1ccc(Cl)cc1NC(=O)CCN1C(=O)C2C3C=CC(C4CC34)C2C1=O (stereo not given) do in these assays?
Ecoli growth: 0.708; UCH37 DUB inh: -1.1; Ecoli rRNA inh: -8.5; AF4-AF9 inh: -3.5; T cruzi repl: 13.1; FGF22 binding: inactive; Beta cell apopt: -4.1; Bfl-1 A1 inh: 0.4; Ecoli rRNA inh OD600: -22.0; Ecoli rRNA inh RFP: -1.8

What do the screens show for `CN(C)S(=O)(=O)c1cccc(C(=O)NC2CCCc3ccccc32)c1` (stereo not given)?
Ecoli growth: 0.716; UCH37 DUB inh: -3.5; T cruzi repl: -0.3; Beta cell apopt: 0.3; Bfl-1 A1 inh: 0.5

What do the screens show for `O=C(C1=C[C@@H](c2ccc(Br)cc2)C[C@@H](OCc2ccc(CO)cc2)O1)N1CCOCC1`?
UCH37 DUB inh: 1.4; Ecoli rRNA inh: -18.0; AF4-AF9 inh: -0.8; T cruzi repl: 3.4; FGF22 binding: inactive; Beta cell apopt: 10.0; Bfl-1 A1 inh: 1.2; Ecoli rRNA inh OD600: -11.9; Ecoli rRNA inh RFP: -11.0

What do the screens show for `CC(C)OC(=O)Cn1nnc2c(cnn2-c2ccccc2)c1=O`?
Ecoli growth: 0.668; UCH37 DUB inh: -0.1; T cruzi repl: 8.2; Beta cell apopt: -12.4; Bfl-1 A1 inh: -1.1

Results for Cc1nnc(SCC(=O)Nc2sccc2C(N)=O)s1 ?
Ecoli growth: 0.696; UCH37 DUB inh: 1.6; AF4-AF9 inh: -0.6; FGF22 binding: inactive; Beta cell apopt: -1.8; Bfl-1 A1 inh: 0.7

What do the screens show for `COc1ccc(/C=N/NC(=O)CC#N)cc1Oc1nc(Cl)ncc1F`?
Ecoli rRNA inh: 3.6; AF4-AF9 inh: -0.8; T cruzi repl: -4.3; FGF22 binding: inactive; Beta cell apopt: -8.4; Bfl-1 A1 inh: -3.1; Ecoli rRNA inh OD600: 9.2; Ecoli rRNA inh RFP: -0.9

How did CCC(CC)NC(=O)c1cccc(Br)c1 do in these assays?
Ecoli growth: 0.665; UCH37 DUB inh: 0.7; Ecoli rRNA inh: 5.7; AF4-AF9 inh: 0.8; T cruzi repl: -0.8; FGF22 binding: inactive; Beta cell apopt: -6.2; Bfl-1 A1 inh: -0.2; Ecoli rRNA inh OD600: -7.9; Ecoli rRNA inh RFP: -0.7

What do the screens show for `Cc1ccc(NC(=O)CCC(=O)N/N=C/c2ccc([N+](=O)[O-])o2)cc1C`?
Ecoli rRNA inh: 3.9; AF4-AF9 inh: 7.6; T cruzi repl: 60.6*; FGF22 binding: inactive; Beta cell apopt: inconclusive; Bfl-1 A1 inh: -0.3; Ecoli rRNA inh OD600: 9.6; Ecoli rRNA inh RFP: 1.0

What do the screens show for `C#CCSc1nnc(-c2sc(-c3ccccc3)nc2C)n1C`?
Ecoli growth: 0.717; UCH37 DUB inh: -9.6; T cruzi repl: 10.4; Beta cell apopt: 5.2

How did COCCNc1ccc([N+](=O)[O-])cc1C(=O)Nc1cccc(C)n1 do in these assays?
Ecoli growth: 0.712; UCH37 DUB inh: 6.2; Ecoli rRNA inh: -19.6; AF4-AF9 inh: 4.7; T cruzi repl: 7.0; FGF22 binding: inactive; Beta cell apopt: 3.2; Bfl-1 A1 inh: 1.0; Ecoli rRNA inh OD600: -15.0; Ecoli rRNA inh RFP: -2.8

What do the screens show for `O=C(c1nc2ccccn2c1CN1CCCC(c2nc3ccccc3o2)C1)N1CCCC1` (stereo not given)?
Ecoli growth: 0.675; UCH37 DUB inh: -1.6; Ecoli rRNA inh: -7.0; AF4-AF9 inh: -1.9; T cruzi repl: 8.8; FGF22 binding: inactive; Beta cell apopt: 0.1; Bfl-1 A1 inh: -0.6; Ecoli rRNA inh OD600: -11.7; Ecoli rRNA inh RFP: -3.0

Results for CCN(CC)c1ccc(C=Nc2cc(C)ccc2C)c(O)c1 ?
Ecoli growth: 0.694; UCH37 DUB inh: 5.8; Ecoli rRNA inh: 20.0; AF4-AF9 inh: 15.5; T cruzi repl: 0.5; FGF22 binding: inactive; Bfl-1 A1 inh: -0.7; Ecoli rRNA inh OD600: 11.7; Ecoli rRNA inh RFP: 6.2

Results for CCC(SC1=NCCS1)C(=O)Nc1nnc(-c2ccccc2OC)s1 (stereo not given) ?
Ecoli growth: 0.675; UCH37 DUB inh: 1.6; Ecoli rRNA inh: 4.1; AF4-AF9 inh: 0.0; T cruzi repl: 6.4; FGF22 binding: inactive; Beta cell apopt: 0.0; Bfl-1 A1 inh: 0.0; Ecoli rRNA inh OD600: -11.1; Ecoli rRNA inh RFP: 2.7

Results for CCOC(=O)c1c(N2CCCCC2)c2ccccc2[nH]c1=O ?
Ecoli growth: 0.719; UCH37 DUB inh: -2.6; T cruzi repl: 8.5; Beta cell apopt: -4.2; Bfl-1 A1 inh: 0.0

Results for CCOc1cccc(=O)c2c(C)n(Cc3ccco3)c(C)c12 ?
Ecoli growth: 0.705; UCH37 DUB inh: 1.9; T cruzi repl: 5.2; Beta cell apopt: 1.5; Bfl-1 A1 inh: 2.9

Results for CSC1=NCCN1C(=O)c1ccc2c(c1)OCO2 ?
Ecoli growth: 0.714; UCH37 DUB inh: 0.6; T cruzi repl: 1.4; Beta cell apopt: -5.7; Bfl-1 A1 inh: 1.2

Bioassay records as filed in PubChem BioAssay.
